Assay outcomes as filed in PubChem.
UUG fidelity: alters start codon recognition fidelity in yeast. hit rate 0.13% among 350,000. AID 602363. S. cerevisiae UUG-firefly luciferase reporter, luminescence/redox ratio. activity score, % at 18.7 µM;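 active means replicate mean at a twofold rise or more, about +100% in these data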;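 further: firefly luciferase made from a UUG start codon reports start codon fidelity; reporter light over untreated wells divided by growth signal over untreated wells; some hits fall short of that in this replicate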
HIV Env fusion: HIV envelope-mediated fusion inhibition | HeLa-JRFL Env/CEM21 cell fusion, luciferase | inhibition, % at 12.3 µM | hit rate 1.1% among 360,000 | AID 651610;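 active means mean replicate inhibition score of at least 50 and every replicate individually at or above 50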;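 further: 0% = plate neutral controls and 100% = maraviroc near 300 nM; one replicate is shown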
MT1-MMP act inh: blocks activation of human MT1-MMP; P50281; HT1080 RFP-PRO-GFP cells, GFP/RFP ratio fluorescence, overnight; percent of plate control window, DMSO zero; GFP/RFP ratio change, % at 20 µM; hit rate 0.061% among 360,000; AID 651647;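 active means GFP/RFP ratio change of at least 30% with cell ATP level not reduced by more than half and red fluorescence within 50% of control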; further: strong numbers were not always called active
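Assay system: RFP-PRO-GFP reporter HT1080 cells; read-out basis: GFP/RFP fluorescence ratio; benchmarks: DMSO wells and RFP-L50D-GFP cells; doses: 20 µM single dose, 1% DMSO; schedule: overnight cell settling, then overnight compound exposure, 37 °C, 5% CO2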
Rce1 inhib: inhibitors of yeast Ras-converting enzyme | AID 2563 | hit rate 0.27% among 290,000 | yeast membranes, quenched prenylated peptide cleavage fluorescence | calls only;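 active means fall in fluorescence gain of 50% or more versus controls, with final raw signal at or below 3038400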;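 further: plate controls were neutral control wells for no effect and wells lacking membranes for full effect; tested at 10 µM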
Target sequence (Q03530 whole entry, looked up): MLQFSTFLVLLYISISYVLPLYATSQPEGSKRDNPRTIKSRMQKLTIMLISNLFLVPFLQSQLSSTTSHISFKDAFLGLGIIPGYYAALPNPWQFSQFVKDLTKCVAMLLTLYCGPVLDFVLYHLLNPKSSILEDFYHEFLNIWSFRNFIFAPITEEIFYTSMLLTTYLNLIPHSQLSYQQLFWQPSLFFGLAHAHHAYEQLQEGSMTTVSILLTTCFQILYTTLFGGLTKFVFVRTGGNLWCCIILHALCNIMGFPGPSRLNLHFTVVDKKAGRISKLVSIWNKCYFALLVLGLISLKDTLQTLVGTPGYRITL
CSC inhib: blocks cancer stem cells. cancer stem cell-like cells viability, luminescence. inhibition, % at 7.5 µM. hit rate 1.1% among 300,000;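 active means mean at 75% or more and at least half the replicates too; tested in HMLE shEcad cells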;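 further: 0% = median of negative and 100% = median of positive control wells; the first replicate is given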
eIF4H inh: inhibitors of RNA binding by human eIF4H; eIF4H fluorescence polarization binding assay; hit rate 0.94% among 290,000; inhibition, % at 35 µM; Q15056;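 active means 50% or more with normal probe brightness, or confirmed in later tests; about a fifth of its hits are not listed in these tables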;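 further: calls also rest on retests at 20 µM and on dose response follow-up; 0% = protein and probe with vehicle and 100% = probe without protein; strong numbers were not always called active; many hits fall short of the cut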
PABP FP inh: PABP-poly(A) binding inhibition; P11940; PABP-poly(A) RNA binding, fluorescence polarization; inhibition, % at 35 µM; hit rate 1% among 290,000;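 active means 50% or more with normal probe brightness, or confirmed in later tests; about a fifth of its hits are not listed in these tables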;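 further: calls also rest on retests at 20 µM and on dose response follow-up; controls were probe without protein and protein plus probe with vehicle; some compounds called inactive have numbers as strong as hits; many hits fall short of the cut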
eIF4H inh retest: also measured in eIF4H inh; calls as there; inhibition, %; compound at 20 µM; confirmation average;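 mean of two retest wells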
PABP FP inh retest: further read-out of PABP FP inh, marked with its call; inhibition, %; compound at 20 µM; confirmation repeats;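 mean of two retest wells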
MT1-MMP act inh RFP: second read-out of MT1-MMP act inh, no call of its own (marks repeat the call); RFP signal change, %; measured here: RFP expression control read;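 0 = vehicle wells; hits needed this value within 50% of zero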
* hit, by the source's call; i = inactive; . = no result given; & = joins results of further samples. These rows are one share of the data (hit frequency here may not be typical).

SMILES	UUG fidelity	HIV Env fusion	MT1-MMP act inh	MT1-MMP act inh RFP	Rce1 inhib	CSC inhib	eIF4H inh	PABP FP inh	others
COc1ccc(-c2nn(C)c(=O)c3ccccc23)cc1NC(=O)COc1ccccc1	-8	80*	4	-14	i	3	-9	-3
CCOC(=O)c1[nH]cnc1C(=O)Nc1ccc(C)cc1	.	1	4	1	i	7	-2	-1
c1nnc2c3c4c(sc3ncn12)CCC4	-32	42	-14	-7	i	.	-3	3
O=C(CN1CCc2ccccc2C1)Nc1ccc(Br)cc1	-19	-40	1	-1	i	6	-6	0
COc1ccccc1C(=O)Nc1ccnn1C1CCN(CCC(C)c2ccc(C)o2)CC1 (centres undefined)	-5	17	0	8	i	8	8	-8
COc1cc(C2c3c(oc4ccccc4c3=O)C(=O)N2Cc2ccco2)ccc1O (centres undefined)	-10	.	-1	3	i	-16	-2	4
CCOc1ccc(/C=C/C(=O)NCc2ccccc2)cc1	-29	2	-3	2	i	-4	-1	8
CCCC(=O)NC(NC(=S)Nc1ccc(N=Nc2ccccc2)cc1)C(Cl)(Cl)Cl (centres undefined)	-12	.	-11	-28	i	119*	1	-8
CCOc1ccc(NC(=O)c2ccccc2NC(=O)CNC2CCCC(C)C2C)cc1 (centres undefined)	-20	.	5	-4	.	-7	.	.
O=C(Nc1cccc(C(F)(F)F)c1)C1CCN(S(=O)(=O)c2cnc[nH]2)CC1	-9	-248	7	3	i	-12	0	2
CCN1C=C(C(=O)OC)C(c2cccc(C)c2)C(C(=O)OC)=C1	-12	-55	1	3	i	12	3	-4
CCOc1ccc(C(=O)NCCc2ccc3c(c2)OCCO3)cc1	.	-13	4	1	i	-7	-11	-2

Filtered by structure, the entries above with sulfur.
SMILES	UUG fidelity	HIV Env fusion	MT1-MMP act inh	MT1-MMP act inh RFP	Rce1 inhib	CSC inhib	eIF4H inh	PABP FP inh	others
c1nnc2c3c4c(sc3ncn12)CCC4	-32	42	-14	-7	i	.	-3	3
CCCC(=O)NC(NC(=S)Nc1ccc(N=Nc2ccccc2)cc1)C(Cl)(Cl)Cl (centres undefined)	-12	.	-11	-28	i	119*	1	-8
O=C(Nc1cccc(C(F)(F)F)c1)C1CCN(S(=O)(=O)c2cnc[nH]2)CC1	-9	-248	7	3	i	-12	0	2

Additional compounds:
SMILES	UUG fidelity	HIV Env fusion	MT1-MMP act inh	MT1-MMP act inh RFP	Rce1 inhib	CSC inhib	eIF4H inh	PABP FP inh	others
O=C(CCNC(=O)C1CCN(S(=O)(=O)c2ccc(F)cc2)CC1)NCc1ccccn1	13	5	4	1	.	.	.	.
COc1ccc(CNC(=O)C2CC(O)CN2C(=O)Nc2ccccc2)cc1 (centres undefined)	5	5	0	2	i	.	-9	-10
NC1=NC(c2cccc(O)c2)n2c(nc3ccccc32)N1 (centres undefined)	-21	-21	-2	-1	i	.	3	0
O=C(CSc1ccccc1C(=O)O)NCc1ccc(Cl)cc1	-6	.	8	2	i	-31	1	-9
O=C(NNc1c2ccccc2nc2ccccc12)c1ccc(O)cc1	.	13	27	-8	i	7	-1	22
CCOC(=O)C1=C(N)N(c2ccccc2)C(=O)C1	12	.	-2	0	i	1	9	-10
Cc1ccc(C(=O)O[C@H](C(=O)O)[C@H](OC(=O)c2ccc(C)cc2)C(=O)O)cc1	-12	8	4	-6	i	-9	-9	-3
C=CCONC(=O)Cc1ccccc1	-10	1	0	-2	.	.	.	.
COc1ccc(/C=N/NC(=O)c2ccc(NC(C)=O)cc2)cc1COc1ccc(F)cc1F	-26	-9	-2	0	i	2	6	3
CCOC(=O)N1CCN(S(=O)(=O)c2ccc3c(c2)OCC(=O)N3)CC1	-18	9	4	2	i	3	5	-3
CN(C)C(=O)Nc1ccccc1	-18	2	3	5	i	-12	6	6
O=C(N/N=C1\CC(c2ccccc2)Oc2ccccc21)c1cccnc1 (centres undefined)	.	-10	4	-5	i	0	-1	7
Cc1ccc(Oc2ccc(NC(=O)C3=CC=CN4CCS(=O)(=O)N=C34)cc2)cc1	-19	12	1	-2	.	25	.	.
CN1CCN(c2oc(COc3ccc(-c4ccccc4)cc3)nc2C#N)CC1	-3	.	2	-7	i	19	5	1
COc1ccc(Br)cc1C(=O)Nc1ccc(N2CCCC2)cc1	-12	4	2	3	i	-4	-6	-6
O=C(NCCc1ccc(Cl)cc1)C1CCCN(S(=O)(=O)c2cnc[nH]2)C1 (centres undefined)	-14	-71	0	0	i	1	0	-10
CCCCn1cnc2cc(NCc3cccc(OC)c3O)ccc21	2	-6	13	6	.	1	-4	-10
Cc1c(NC(=O)c2ccco2)c(=O)n(-c2ccccc2)n1C	-9	-11	-1	0	i	-25	-1	0
COc1ccccc1NC(=O)NCc1ccc(C)n1C	0	4	-5	2	i	-7	53	28	eIF4H inh retest=2;PABP FP inh retest=4
N=C1C=CC=C2C1=NC1(CCCCC1)N2O	-15	.	16	0	i	-10	9	-3
CC(C(=O)Nc1cccc(S(=O)(=O)N2CCOCC2)c1)N1CCN(C/C=C/c2ccccc2)CC1 (centres undefined)	.	11	4	-3	i	12	-7	-4
C[C@H](CO)N1C[C@H](C)[C@H](CN(C)C)Oc2ccc(NS(=O)(=O)c3ccc(F)cc3)cc2CC1=O	-8	-14	-2	-1	.	.	.	.
CC(C(=O)Nc1ccc(N2CCOCC2)cc1)N1C(=O)c2ccccc2C1=O (centres undefined)	-13	.	9	11	i	.	8	2
CC1CC(C)CN(CC(O)COc2ccc3c(c2)CCC3)C1 (centres undefined)	.	-2	4	4	i	-3	2	-3
O=C(NNC(=O)c1ccccc1[N+](=O)[O-])c1ccco1	.	3	-1	3	i	-8	5	3
O=C(CN(C(=O)CNC(=O)c1cccs1)c1ccccc1F)NC1CCCCC1	-10	-24	2	-4	i	-5	1	7
O=C(Cc1ccc(F)cc1)OCC(=O)c1cc2ccccc2o1	4	.	-5	-4	i	-3	0	1
CC(=O)N1CCN(CC(=O)Nc2cc([N+](=O)[O-])ccc2Cl)CC1	-20	-3	3	5	i	-13	8	-1
COCCCN(C(=O)CSCC(=O)Nc1cccc(C)c1)c1c(N)n(Cc2ccccc2)c(=O)[nH]c1=O	-2	-10	-2	-4	i	-14	.	.
CCOc1ccc(N(CC(=O)NC(C)(C)C)C(=O)c2ccco2)cc1	-7	-14	3	7	i	-5	4	3
COc1ccc(-c2ccc(SCC(=O)NC3CCCC3)nn2)cc1	-8	-13	0	-4	.	.	.	.
COc1cc(/C=N/NC(=O)C(=O)NCc2cccnc2)ccc1O	-20	11	1	2	i	.	-1	5
COC(=O)c1cc(OC)c(OC)cc1NC(=S)NC(=O)c1ccco1	-18	19	1	4	i	-3	-4	3
CCN(CC(=O)Nc1ccc2c(c1)OC(F)(F)O2)Cc1nc2ccccc2c(=O)[nH]1	-8	.	5	5	i	19	4	8
COc1ccc(N2C(=O)CC(N3CCN(c4ccc(C(=O)c5cccnc5)cc4)CC3)C2=O)cc1 (centres undefined)	-8	-38	1	2	i	-25	1	-2
Cc1cnc(CNC(=O)c2ccc3oc(Cc4ccccc4)nc3c2)[nH]1	-13	-4	3	3	i	-3	-1	1
Cc1nn(-c2ccccc2)c(N)c1C1(O)C(=O)Nc2ccc([N+](=O)[O-])cc21 (centres undefined)	-1	7	-4	1	i	3	8	0
COc1ccc(C2C(C(=O)c3sc(C)nc3C)=C(O)C(=O)N2CCCn2ccnc2)cc1 (centres undefined)	-13	-11	-7	-1	i	-6	.	.
COc1cccc(S(=O)(=O)NCc2ccc(C(=O)N3CCN(Cc4ccccc4)CC3)cc2)c1	-9	37	7	-14	.	-7	-8	-8
C/C(=N\NC(=O)C(=O)Nc1ccc(C)cc1)c1ccncc1	-10	.	-1	5	i	-4	4	-15
O=C(Nc1cccc(S(=O)(=O)N2CCCC2)c1)c1ccncc1	-8	-31	2	-7	i	-2	-4	7
CC(C)NC(=S)NN(c1ccccc1)c1ccccc1	-30	-47	-3	2	i	-1	-13	-2
CCOc1c(Nc2cccc(Cl)c2)c(=O)c1=O	.	-5	-1	-1	i	0	-6	8
Cc1cc(=O)oc2cc(OC(C)C(=O)NCC3CCC(C(=O)O)CC3)c(Cl)cc12 (centres undefined)	8	.	5	5	i	-13	11	5
O=C(Nc1cc(C(F)(F)F)ccc1-n1cncn1)c1ccc(Br)cc1	-6	-71	-1	-4	i	-9	-6	-9
COCCCNC(=S)NC1CC2CCC(C1)N2Cc1ccccc1 (centres undefined)	.	-10	8	2	i	-8	1	-2
COc1ccccc1NS(=O)(=O)c1cc(C(=O)NCc2cccnc2)ccc1C	7	.	-2	-2	i	5	.	.
COc1cccc(NC(=O)COc2ncnc3sc(C)c(C)c23)c1	18	.	1	-1	i	-9	-6	-8
C(#CCN1CCCC1)CC(c1ccccc1)c1ccccc1	.	-8	-10	-3	i	-1	-10	-2
Cc1noc(C)c1COc1cccc(C(=O)NCCc2c[nH]c3ccccc23)c1	.	-18	4	-6	i	47	-5	-2
Cc1ccc(NC(=O)Cn2cnc3c(OCc4ccccc4)ncnc32)cc1C	-13	-27	2	-1	.	.	.	.
O=c1c(Cc2c(F)cccc2Cl)c(O)ccn1CCCN1CCOCC1	.	-5	2	3	i	-11	0	-6
CCCCCCn1c(=O)n2n(c1=O)C[C@]1(OC(=O)NC3CCCC3)CN(S(=O)(=O)c3ccc(C)cc3)C[C@]1(O)C2	11	-63	1	-12	.	.	.	.
O=C(NC1CCCCC1)c1cc([N+](=O)[O-])[nH]n1	-1	-5	0	3	i	-13	-8	6
COc1ccc(C)cc1S(=O)(=O)NCCC1=CCCCC1	-5	.	6	2	i	-1	-9	-8
O=C(CSc1nnc(NC2CC2)s1)NN1C(=O)NC2(CCCCC2)C1=O	-22	-17	1	5	.	.	.	.
O=C(CCc1nnc(Cc2cccc(C(F)(F)F)c2)o1)NCCc1ccccc1F	4	0	3	2	i	-8	-13	1
CCc1ccc(NC(=O)N[C@H](C(=O)O)C(C)CC)cc1 (some centres undefined)	-9	-35	2	5	i	-15	-12	1
Cc1ccccc1N(CC(=O)NCCc1ccccc1)C(=O)c1csnn1	-2	1	0	6	i	.	-5	2
O=C(NN1C(=O)C2C3C=CC(C4CC34)C2C1=O)c1ccccc1Cl (centres undefined)	.	15	5	3	.	2	-1	-6
Additional compounds:
SMILES	UUG fidelity	HIV Env fusion	MT1-MMP act inh	MT1-MMP act inh RFP	Rce1 inhib	CSC inhib	eIF4H inh	PABP FP inh	others
COc1cccc(C(=O)Nc2ccc(NC(=O)C3CC3)nc2)c1	-26	20	0	-2	i	13	-2	7
COC(=O)/C=C/COc1ccccc1[N+](=O)[O-]	.	1	-1	1	i	-7	-4	-5
CCOC(=O)Cn1c(=O)c2c(nc(Br)n2CC(=O)OCC)n(C)c1=O	-10	.	2	-1	i	13	3	-10
Cc1ccc(NC2=NC(=S)N(CC#N)C23CCCCC3)cc1	0	-39	-2	-2	i	-14	-8	3
O=C(Nn1cnnc1)c1ccc(OC(F)(F)C(F)C(F)(F)F)cc1 (centres undefined)	-9	-15	2	5	i	1	2	2
CCOc1ccc(C2CC(c3ccc(CC)cc3)n3nc(N)nc3N2)cc1 (centres undefined)	-23	-41	14	0	i	-6	8	-6
Cc1ccc(-c2nc(CS(=O)CC(=O)NCCCc3ccccc3)c(C)o2)cc1 (centres undefined)	-14	-1	7	4	i	-6	-7	-8
Cc1ccc(C(O)(C(=O)NNc2ccc3ccccc3n2)c2ccc(C)cc2)cc1	-6	-8&-18	5&6	10&2	i	-16&35	22&11	5&7
COc1ccc(NC(=O)CSc2nnc(Cc3ccc(C)cc3)c(=O)n2N)cc1	-8	1	0	-7	i	-11	.	.
CC(=O)N1c2ccc(S(=O)(=O)NCCc3ccc(S(N)(=O)=O)cc3)cc2CC1C (centres undefined)	-1	-6	0	0	i	1	11	14
